StopGo reporter = High Throughput Screening for Foot and Mouth Disease Virus Antivirals | hit rate 1.2% among 410,000 | AID 1159524, 2015 | human cells with a luciferase reporter of 2A StopGo recoding; control for the full effect not named in the record | Potency, µM (doses to about 57.9 µM), without a hit: at the top dose signal change, negative = less light; active = well fitted falling curve with a large enough effect; inconclusive = small, poorly fitted or top-dose-only effect; inactive = no such curve, though single readings can be large or run the other way; tested in HEK293T cells; note: nearly all actives have a fitted effect of over 45% in size; luciferase light after 4 h
Cruzain noTriton = qHTS Assay for Promiscuous and Specific Inhibitors of Cruzain (without detergent); Cruzipain (Trypanosoma cruzi), P25779; purified cruzain, Z-FR-AMC fluorescence, no detergent; Potency, µM, for inactives: max response, negative = inhibition, actives largely listed as inhibitors; hit rate 2.3% among 200,000;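 note: plate controls were enzyme without inhibitor for no effect and buffer without enzyme for full effect; nearly all actives have a fitted effect of over 40% in size; top concentration of the series not given in the record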
Target sequence (P25779 123-467 limits assumed): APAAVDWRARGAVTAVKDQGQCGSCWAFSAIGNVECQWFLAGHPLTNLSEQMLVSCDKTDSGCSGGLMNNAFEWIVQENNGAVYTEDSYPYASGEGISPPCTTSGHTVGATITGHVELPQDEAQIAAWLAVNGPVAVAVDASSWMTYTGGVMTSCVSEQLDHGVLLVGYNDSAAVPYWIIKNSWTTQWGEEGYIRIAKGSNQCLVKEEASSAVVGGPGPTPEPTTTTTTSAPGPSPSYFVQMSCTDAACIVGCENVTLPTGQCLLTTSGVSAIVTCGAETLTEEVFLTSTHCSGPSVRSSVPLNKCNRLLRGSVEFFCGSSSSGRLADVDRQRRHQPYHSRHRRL
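Detergent-free condition (0.00005% Triton X-100) in acetate buffer pH 5.5 with DTT. 1.5 nM enzyme and compound were pre-mixed 15 min, then 2 uM Z-FR-AMC substrate added; reaction progress from fluorescence change between first and third reads (60 s).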
Cruzain inh Det = qHTS Assay for Promiscuous and Specific Inhibitors of Cruzain (with detergent). Cruzipain (Trypanosoma cruzi), P25779. purified cruzain, Z-FR-AMC fluorescence, 0.01% Triton. Potency, µM, inactives show max response, negative = inhibition, usual class: inhibitors. hit rate 0.43% among 200,000. AID 1478, 2009;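 note: plate controls were neutral wells for no effect and buffer without enzyme for full effect; nearly all actives have a fitted effect of over 40% in size; top concentration of the series not given in the record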
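Cysteine protease activity tested under reducing, mildly acidic conditions (100 mM sodium acetate pH 5.5, 5 mM DTT) plus 0.01% Triton X-100. Cruzain 1.5 nM; substrate Z-FR-AMC 2 uM; 15 min compound preincubation at room temperature.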
An asterisk follows results filed as active; ? = inconclusive; & = joins results of further samples; [ ] = dose if it differs, or a comment. Unless noted, calls come from the whole dose curve; as a rule, active = well fitted curve in the direction sought with a large enough effect; inconclusive = small, poorly fitted or top-dose-only effect, or another doubt; inactive = no such curve, though single readings can be large; an effect the other way counts as inactive or inconclusive. Unless noted, % is set by controls: 0 for no effect and ±100 for the full control effect; potency is the fitted concentration of half-maximal effect.

Preview, seven compounds:
item | SMILES | StopGo reporter | Cruzain noTriton | Cruzain inh Det
1 | CC(=O)NC(C(=O)O)C(C)(C)SN=O (stereo not drawn) | 6.2% | -5.9% | 3.9%
2 | CC(=O)c1ccc[nH]1 | 10.9% | 2.7% | 6.0%
3 | O=C(c1csnn1)N1CCC2(CCCN(C(c3ccccc3)c3ccccc3)C2)CC1 | ? | 1.6% | -1.5%
4 | Cn1c(=O)c(-c2cccs2)nc2cncnc21 | -2.0% | -12.6% | -1.2%
5 | COCCn1c(=O)c(-c2ccc(Cl)cc2)nc2cnc(N(C)C)nc21 | 9.6% | -8.0% | -0.7%
6 | CNC(=O)Oc1cccc2c1OC(C)(C)C2 | -0.4% | 3.2% | 4.3%
7 | CN1CCN(c2ncc3nc(-c4ccc(F)cc4)c(=O)n(C4CC4)c3n2)CC1 | -15.8% | ? | ?

This part in full, previewed entries included:
item | SMILES | StopGo reporter | Cruzain noTriton | Cruzain inh Det
1 | CC(=O)NC(C(=O)O)C(C)(C)SN=O (stereo not drawn) | 6.2% | -5.9% | 3.9%
2 | CC(=O)c1ccc[nH]1 | 10.9% | 2.7% | 6.0%
3 | O=C(c1csnn1)N1CCC2(CCCN(C(c3ccccc3)c3ccccc3)C2)CC1 | ? | 1.6% | -1.5%
4 | Cn1c(=O)c(-c2cccs2)nc2cncnc21 | -2.0% | -12.6% | -1.2%
5 | COCCn1c(=O)c(-c2ccc(Cl)cc2)nc2cnc(N(C)C)nc21 | 9.6% | -8.0% | -0.7%
6 | CNC(=O)Oc1cccc2c1OC(C)(C)C2 | -0.4% | 3.2% | 4.3%
7 | CN1CCN(c2ncc3nc(-c4ccc(F)cc4)c(=O)n(C4CC4)c3n2)CC1 | -15.8% | ? | ?
8 | CN(C)c1ncc2nc(-c3ccc(Cl)cc3)c(=O)n(C)c2n1 | 30.7%[activator] | 11.6% | 0.7%
9 | CC1CC[C@@]2(C(=O)O)CC[C@]3(C)C(=CCC4[C@@]5(C)CCC(O)C(C)(C)C5CC[C@@]43C)C2C1C (stereo partly drawn) | -2.0% | 2.7% | 0.7%
10 | CC(=O)N1CCC2(CCCN(c3cccc(-c4ccccc4)c3)C2)CC1 | 8.0% | ? | -11.7%
11 | COc1ncc2ncc(=O)n(Cc3ccc(F)cc3)c2n1 | -12.6% | -1.4% | -0.1%
12 | CC(=O)NCCNc1cc(-c2ccccc2C)ncn1 | 1.6% | 5.8% | 4.3%
13 | NC(N)=Nc1ccc2[nH]c3c(c2c1)C[C@]1(O)[C@@H]2Cc4ccc(O)c5c4[C@]1(CCN2CC1CC1)[C@@H]3O5 | -14.6% | -0.5% | 2.5%
14 | C=CCNC(=O)c1cc([N+](=O)[O-])cc2c(=O)[nH]c(Nc3ccc(Cl)c(Cl)c3)nc12 | -10.9% | -6.9% | -10.8%
15 | FC(F)(F)c1ccccc1-c1nccc(-n2ccnc2)n1 | -11.9% | 9.3% | 10.0%
16 | COc1cc(O)ccc1C(C)=O | -16.1% | -7.2% | 2.6%
17 | COc1ccc(Oc2ncc3nc(-c4cccc(C#N)c4)c(=O)n(CCC#N)c3n2)cc1 | -31.8% | -9.6% | -5.3%
18 | CN(C)Cc1ccccc1-c1cc(Nc2ccccc2)ncn1 | -15.0% | 11.9% | 2.1%
19 | O=C(O)Cc1nn(Cc2ccc(Br)cc2F)c(=O)c2ccccc12 | -16.4% | 5.1% | -8.1%
20 | O=C(Nc1ccccc1)N1CCC2(CC1)CCN(C(=O)Oc1ccccc1)CC2 | -6.1% | 5.1% | 0.3%
21 | Cc1noc(C)c1-c1cc(N(C)C)ncn1 | 2.5% | 10.5% | 2.9%
22 | COc1cccc(Nc2ncc3nc(-c4ccc(F)cc4)c(=O)n(C[C@H]4CCCO4)c3n2)c1 | -3.5% | 15.5% | 3.0%
23 | Cc1nc2cnc(N(C)C)nc2n(-c2ccccc2)c1=O | -6.1% | -8.2% | -1.0%
24 | O=C1C(O)=C(O)C(=O)C(O)=C1O | 10.0% | 3.1%&5.1% | -4.2%&-6.5%
25 | N#Cc1cccc(NC(=O)N2CC[C@@]3(CCCN(C(=O)c4ccncc4)C3)C2)c1 | -7.7% | 4.2% | 1.3%
26 | Cc1noc(C)c1C(=O)N1CCC2(CCCN(C(=O)Nc3ccccc3)C2)CC1 | -8.7% | 0.8% | -0.6%
27 | COc1cccc(Cn2c(=O)c(-c3cn(C)c4ccccc34)nc3cncnc32)c1 | -6.4% | -6.4% | -4.4%
28 | Oc1ccc2[nH]cc(CCCCN3CC=C(c4ccccc4)CC3)c2c1 | ? | 2.1% | -4.5%
29 | Clc1ccccc1-c1nc(-n2ccnc2)c2ccccc2n1 | ? | 7.5% | -0.3%
30 | Cc1ccccc1-c1cncnc1Nc1ccc(F)cc1 | -0.7% | 6.6% | -0.9%

Continuation.
item | SMILES | StopGo reporter | Cruzain noTriton | Cruzain inh Det
31 | COc1ccc(-n2c(=O)c(C)nc3cnc(Oc4cccc(Cl)c4)nc32)cc1 | -12.9% | 26.0% | -5.1%
32 | COCCn1c(=O)c(-c2ccc(OC)cc2)nc2cnc(Nc3cccc(OC)c3)nc21 | -9.8% | -4.5% | -2.4%
33 | Clc1ccccc1-c1ccc2ncnc(NC3CCNCC3)c2c1 | -5.8% | 1.4% | 2.2%
34 | O=C(c1cc(C(F)(F)F)cc(C(F)(F)F)c1)N1CCC2(CCCN(c3ccccc3)C2)CC1 | -4.0% | -4.3% | -5.3%
35 | Cc1cc(O)c(C)c2c1CC[C@H]1[C@H](C)C(=O)O[C@H]21 | -11.4% | -4.7% | -1.2%
36 | Cn1cccc1C(=O)N1CCC2(CC1)CN(Cc1cc(C(F)(F)F)cc(C(F)(F)F)c1)C2 | -23.6% | -4.3% | -1.9%
37 | CCC(CC)(CC(=O)Nc1cccc(/C=C/c2nc(C3CCC3)cs2)c1)C(=O)O | 11.3% | -3.6% | -11.3%
38 | CC(C)CCCC1(C)C=Cc2c(O)c3c(c(CCC(C)C)c2O1)OC12C(CC4CC1C(C)(C)OC2(CCC(C)C(=O)O)C4O)C3=O (stereo not drawn) | -4.8% | 14.4% | -0.2%
39 | Cl/C(=C\n1cncn1)c1ccc(Cl)cc1Cl | -13.2% | 6.9% | -1.3%
40 | c1cn(-c2ccnc(-c3ccc4c(c3)OCO4)n2)cn1 | 26.5% | 0.3% | -2.6%
41 | CN1CCN(c2ncc3nc(-c4ccc(Cl)cc4)c(=O)n(Cc4ccc(F)cc4)c3n2)CC1 | -11.4% | ? | -0.7%
42 | N#Cc1cccc(-c2nc(N3CCNCC3)c3ccccc3n2)c1 | -3.7% | 1.9% | 2.9%
43 | COC(=O)[C@H]1Cc2c([nH]c3ccccc23)CN1C(=O)COc1ccc2c(C)cc(=O)oc2c1 | -18.8% | -9.8% | -2.2%
44 | COCC(=O)N1CCC2(CCCN(C(=O)Nc3ccccc3)C2)CC1 | -16.5% | 5.3% | 0.3%
45 | C[C@@]1(C(=O)O)NCCc2cc(O)c(O)cc21 | 4.0% | ? | -5.9%
46 | Cc1nc2cnc(Nc3ccccc3)nc2n(C2CC2)c1=O | -6.9% | -8.8% | 2.8%
47 | COc1ccc2[nH]cc(CCNc3nc(-c4ccc(N(C)C)cc4)nc4ccccc34)c2c1 | 0.1% | 25.1µM* | -16.0%
48 | FC(F)(F)c1ccccc1-c1cc(NCCN2CCOCC2)ncn1 | 15.5% | -4.1% | 2.3%
49 | O=C(c1ccncc1)N1CCC2(CC1)CN(Cc1cc(C(F)(F)F)cc(C(F)(F)F)c1)C2 | -9.4% | 6.1% | 3.0%
50 | CC(C)NC(=O)N1CCCC2(CCN(C(=O)c3cccn3C)CC2)C1 | 1.6% | -13.2% | 2.9%
51 | O=C(Nc1ccccc1)N1CC[C@@]2(CCCNC2)C1 | 0.0% | -10.0% | 2.7%
52 | CC1(C)OC2C(CO)OC(n3cnc4c(=O)[nH]c(N)nc43)C2O1 (stereo not drawn) | 7.4% | -0.2% | 4.7%
53 | COc1ccc(Oc2ncc3nc(-c4cccc(C#N)c4)c(=O)n(C)c3n2)cc1 | -1.3% | 2.6% | 0.8%
54 | COc1ncc2nc(-c3ccc(F)cc3)c(=O)n(Cc3cccs3)c2n1 | -4.5% | -8.6% | 2.3%
55 | Cc1cccc(CNc2cc(-c3ccoc3)ncn2)c1 | -18.6% | -15.7% | -2.7%
56 | CC(C)CN1CC2(CCN(C(=O)Oc3ccccc3)CC2)C1 | -4.9% | 0.2% | 4.8%
57 | CN1CCN(c2ncncc2-c2ccccc2Cl)CC1 | -13.2% | 6.4% | 0.2%
58 | CC1=C(CCC(=O)O)c2cc3nc(cc4[nH]c(cc5[nH]c(cc1n2)c(C)c5C(C)O)c(C)c4C(C)O)C(C)=C3CCC(=O)O (stereo not drawn) | -4.6% | 16.4% | -4.0%
59 | Cn1c(=O)cnc2cnc(Nc3ccccc3)nc21 | 11.1% | 25.1µM* | -5.8%
60 | O=C(c1ccc(F)cc1)C1CCN(CCCCc2ccccc2)CC1 | -8.1% | 3.2% | -0.5%

Given with values under each structure: part of the list above
Each structure is followed by: StopGo reporter | Cruzain noTriton | Cruzain inh Det
(50) CC(C)NC(=O)N1CCCC2(CCN(C(=O)c3cccn3C)CC2)C1
→ 1.6% | -13.2% | 2.9%
(44) COCC(=O)N1CCC2(CCCN(C(=O)Nc3ccccc3)C2)CC1
→ -16.5% | 5.3% | 0.3%
(37) CCC(CC)(CC(=O)Nc1cccc(/C=C/c2nc(C3CCC3)cs2)c1)C(=O)O
→ 11.3% | -3.6% | -11.3%

(further entries)
item | SMILES | StopGo reporter | Cruzain noTriton | Cruzain inh Det
61 | COc1c(C2=CC(=O)N(C)C2=O)c2c(n1C)C(=O)c1ccccc1C2=O | -22.4% | -14.3% | 6.7%
62 | Cc1cccc(CNc2ccnc(-c3cccnc3)n2)c1 | ? | 7.2% | -2.8%
63 | CC1=CC[C@@]2(CO)COC(c3ccccc3O)C1C2 (stereo partly drawn) | -4.1% | -13.2% | -3.5%
64 | COc1ccccc1CNc1ncncc1-c1ccccc1CN(C)C | -16.4% | -0.9% | 1.7%
65 | CC(C)C1=CC2=CC[C@@H]3[C@](C)(CO)CCC[C@]3(C)C2CC1 (stereo partly drawn) | -11.0% | 1.9% | -7.8%
66 | COc1ccc(C(=O)N2CCC3(CCN(C)CC3)CC2)cc1 | -6.2% | -7.5% | -0.8%
67 | O=C(Nc1ccccc1)N1CCCC2(CCNCC2)C1 | 19.6% | 2.4% | 1.1%
68 | Cc1nc2cnc(Oc3ccccc3)nc2n(-c2ccccc2)c1=O | -10.2% | -11.7% | 0.0%
69 | CN1CCN(c2ncc3nc(CCc4ccccc4)c(=O)n(C)c3n2)CC1 | 29.2% | -5.3% | -20.0%
70 | Cc1nc2cncnc2n(Cc2ccc(F)cc2)c1=O | -19.0% | 1.9% | -0.9%
71 | CC(C)=CCc1c(O)cc2oc(C)cc(=O)c2c1O | -2.6% | 1.9% | -0.3%
72 | COc1ccc(C(=O)N2CCC3(CC2)CN(Cc2ccc(C#N)cc2)C3)cc1 | -13.8% | -5.8% | 8.5%
73 | Cn1c(=O)c(-c2cc(F)cc(F)c2)nc2cnc(Nc3ccccc3)nc21 | -1.3% | ? | 2.5%
74 | COCC(=O)N1CCC2(CC1)CN(Cc1ccccc1OC)C2 | 2.5% | 5.0% | 3.0%
75 | COC(=O)N1CCC2(CCN(C(=O)Nc3cccc(F)c3)CC2)CC1 | 20.2% | 1.4% | 5.1%
76 | COc1ccc2[nH]cc(CCNc3ccnc(-c4ccc5c(c4)OCO5)n3)c2c1 | -6.1% | ? | -1.3%
77 | COc1c(O)cc2c(=O)oc3c(OC)c(O)cc4c(=O)oc1c2c34 | -8.3% | -26.0% | -12.9%
78 | COc1ccc(C(C)=O)c(O)c1 | -13.9% | 8.0% | 1.2%
79 | COc1ccccc1-c1nc(N2CCOCC2)c2ccccc2n1 | -1.8% | -6.2% | -0.1%
80 | CC(C)=CCc1c(O)cc(C)oc1=O | 8.0% | ? | 2.4%

2 compounds from above with just Cruzain noTriton.
cpd	canonical_smiles	Cruzain noTriton
78	COc1ccc(C(C)=O)c(O)c1	8.0%
79	COc1ccccc1-c1nc(N2CCOCC2)c2ccccc2n1	-6.2%

Look-ups from the entries so far:
COc1c(O)cc2c(=O)oc3c(OC)c(O)cc4c(=O)oc1c2c34 | Cruzain inh Det = -12.9%
COc1ccc(C(C)=O)c(O)c1 | Cruzain inh Det = 1.2%
COc1c(C2=CC(=O)N(C)C2=O)c2c(n1C)C(=O)c1ccccc1C2=O | Cruzain inh Det = 6.7%
COc1ccccc1CNc1ncncc1-c1ccccc1CN(C)C | StopGo reporter = -16.4%

The list is partial; count on the stated rates, not on these rows.
